Rango dissoc inh: inhibition of RanGTP-driven Rango-importin beta dissociation; AID 540253; actives 0.071% (n = 340,000); Potency, µM (top dose mostly 46.1 µM), for the others: at the highest dose activity change, negative = inhibition; Biochemical FRET Rango-importin beta, RanGTP-induced dissociation; active means falling FRET ratio curve, often poorly fitted, with flat reads before Ran was added; inconclusive means other falling curves, or compound fluorescence or quenching; inactive means flat or rising ratio curve;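 note: potency is the fitted concentration of half-maximal effect; % of control where 0% means no effect; nearly all actives have a fitted effect of over 45% in size; -100% = wells without RanGTP and RCC1; the record marks most hits as doubtful in a second field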
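FRET read at 45 min, room temperature: inhibitors block the CFP/YFP signal rise when RanGTP (0.6 uM Ran, 2 mM GTP, 0.2 uM RCC1) frees Rango (0.1 uM) from importin beta (0.25 uM). Pre-read after 5 min compound exposure flags interference.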
miR-21 FLuc: raises the signal of a miR-21 reporter; 340,000 tested, under 10 active; Potency, µM (top dose mostly 38.3 µM), inactives show at the highest dose reporter change, positive = more light; HeLa miR-21 FLuc reporter, luciferase, 48 h; active = well fitted rising curve with a large enough effect; inconclusive = small, poorly fitted or top-dose-only effect; inactive = no such curve, though single readings can be large or run the other way;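 note: % of control where 0% means no effect; miR-21 action dims this reporter so a rising signal means less miR-21 action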
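HeLa miR-21-FLuc reporter line, endogenous miR-21; 2000 cells/well in DMEM/10% FBS; compound titration up to ~40uM final, 48 h, 37 degree Celsius; luciferase detection reagent, 15 min lysis, CCD luminescence.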
Rango-impB inh: inhibitors of Rango-importin beta complex formation; Q14974; Rango CFP/YFP FRET sensor + importin beta, 45 min; Potency, µM (doses to about 92.2 µM), for inactives: at the highest dose inhibition of complex formation; actives 0.031% (n = 340,000); AID 540263; active = rising FRET ratio curve, often small or poorly fitted; inconclusive = mostly compound fluorescence or quenching in the first reads; inactive = flat curves in all reads;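 note: potency is the fitted concentration of half-maximal effect; 0% = DMSO wells and 100% = buffer wells lacking importin beta; nearly all actives have a fitted effect of over 15% in size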
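Inhibition scored from the CFP 486 nm/YFP 530 nm FRET ratio 45 min after adding 0.125 microM importin beta to 50 nM Rango biosensor preincubated 5 min with compound (room temperature, PBS with DTT, Tween-20, BSA). No-importin wells as positive control.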
GLA inh pH 4.5: inhibitors of human alpha-galactosidase A at pH 4.5; P06280; purified enzyme, 4-MU-alpha-Gal fluorescence, pH 4.5; activity change, negative = inhibition, % at 105 µM; 230,000 tested, under 10 active; AID 1467; inconclusive = small, poorly fitted or top-dose-only inhibition, or a rising curve; inactive = flat fitted curve, though single readings scatter; no compound was filed as active;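 note: 0% = full activity with enzyme and -100% = basal without enzyme; dose as in the result columns while the protocol names 77 µM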
Target sequence (P06280 whole entry, looked up): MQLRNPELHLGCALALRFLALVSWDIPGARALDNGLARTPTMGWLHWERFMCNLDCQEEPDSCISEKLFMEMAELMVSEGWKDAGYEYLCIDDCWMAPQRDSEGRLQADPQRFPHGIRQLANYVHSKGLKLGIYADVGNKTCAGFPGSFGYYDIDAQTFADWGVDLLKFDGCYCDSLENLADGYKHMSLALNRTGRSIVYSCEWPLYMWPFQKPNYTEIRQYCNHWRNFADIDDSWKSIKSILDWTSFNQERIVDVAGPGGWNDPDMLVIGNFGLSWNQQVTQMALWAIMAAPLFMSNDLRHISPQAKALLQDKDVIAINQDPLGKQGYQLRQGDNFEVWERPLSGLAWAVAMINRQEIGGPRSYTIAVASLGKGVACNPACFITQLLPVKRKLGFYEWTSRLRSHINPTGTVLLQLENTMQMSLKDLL
The depositor's hits bear a star; ? = inconclusive; / = not tested or not shown; [ ] = remark or other dose. This is a subset; the hit share may differ from the screen's.

SMILES	Rango dissoc inh	miR-21 FLuc	Rango-impB inh	GLA inh pH 4.5
COc1ccc(C/C(N)=N/OC(=O)c2cccc([N+](=O)[O-])c2)cc1	14%	-14%	-1.0%	0
O=C(C[C@H]1C/C=C\C[C@H](NC(=O)OCC2c3ccccc3-c3ccccc32)C(=O)OC[C@@H]2CCCN2C1=O)N[C@H](CO)Cc1ccccc1	-7%	/	-0.9%	/
COC(=O)NNC(=O)COc1ccccc1C	-1%	-3%	-1.2%	3
CCOc1ccc(S(=O)(=O)N2CCC(C(=O)NCc3ccccn3)CC2)cc1C	-10%	0%	1.1%	/
O=C(CC12CC3CC(CC(C3)C1)C2)N1CCCOC1	13%	-2%	0.0%	-18
O=C(O)Cn1c(-c2ccccn2)nc2ccccc21	-5%	-34%	-0.5%	/
O=c1[nH]c(Cc2ccccc2)nc2c1oc1ccccc12	0%	-7%	-0.1%	-1
CCN(CC)CCNC(=O)c1cc2c(s1)-c1ccccc1SC2	13%	7%	-2.6%	/
COc1cc(CCCN2CCNC[C@@H]2C(C)O)cc(OC)c1OC (stereo not given in full)	32%	/	?	/
Nc1ccccc1S(N)(=O)=O	12%	/	0.3%	4
O=C(O)CCCCCCCCCCP(=O)(c1ccccc1)c1ccccc1	10%	-1%	5.2%	-3
COc1ccccc1Cn1c(=O)c2ccccc2n2c(Sc3ncnc4sccc34)nnc12	-7%	-8%	-4.0%	-3
Cc1cc(Cl)c(S(=O)(=O)N(C)C)cc1OCC(N)=O	0%	-7%	1.3%	-2
O=C(O)c1cccc(NC(=O)c2cn(-c3ccccc3)nc2-c2cccc(Br)c2)c1	-4%	0%	4.4%	/
N/C(Cc1ccccc1)=N\OC(=O)c1cccc2ccccc12	1%	19%	-0.9%	-20
Cc1nc2cc(NC(=O)c3ccc(N4C(=O)CCC4=O)cc3)ccc2s1	1%	12%	4.0%	5
CS(=O)(=O)N(CC(=O)NCCC1=CCCCC1)c1ccc2c(c1)OCO2	1%	-6%	1.1%	-4
O=C(O)CCN1C(=O)c2ccc(NC(=O)c3cccs3)cc2C1=O	-12%	-6%	0.8%	-1
Cc1ncc(CN2CCCC(CCC(=O)NCc3ccc(F)c(F)c3)C2)s1 (stereo not given)	-2%	1%	0.0%	2
CC(Sc1nc(-c2ccco2)nc2c1c(=O)n(C)c(=O)n2C)C(=O)O (stereo not given)	-4%	-3%	0.6%	1
Cc1oc2c(C)c(O)ccc2c(=O)c1-c1cnn(-c2ccccc2)c1	8%	-19%	-1.3%	7
COCCN(C(=O)Cn1nnc2ccccc21)C(C(=O)NC1CCCCC1)c1ccc(OC)cc1OC (stereo not given)	2%	0%	-0.5%	-9
C=CCNc1nc(Nc2ccc([N+](=O)[O-])cc2)nc(N2CCCC2)n1	17%	-4%	4.1%	-13[21.1 µM]
COc1c(F)c(F)c(C(=O)Nc2ccccc2N2CCN(C(C)=O)CC2)c(F)c1F	6%	-11%	1.8%	15
Cc1cc(Oc2nc3c(C)cccn3c(=O)c2/C=C(\C#N)S(=O)(=O)c2ccc(Cl)cc2)ccc1Cl	3%	-7%	0.6%	3

Brought forward from above: 6 entries, followed by the next part.
SMILES	Rango dissoc inh	miR-21 FLuc	Rango-impB inh	GLA inh pH 4.5
CC(Sc1nc(-c2ccco2)nc2c1c(=O)n(C)c(=O)n2C)C(=O)O (stereo not given)	-4%	-3%	0.6%	1
Cc1oc2c(C)c(O)ccc2c(=O)c1-c1cnn(-c2ccccc2)c1	8%	-19%	-1.3%	7
COCCN(C(=O)Cn1nnc2ccccc21)C(C(=O)NC1CCCCC1)c1ccc(OC)cc1OC (stereo not given)	2%	0%	-0.5%	-9
C=CCNc1nc(Nc2ccc([N+](=O)[O-])cc2)nc(N2CCCC2)n1	17%	-4%	4.1%	-13[21.1 µM]
COc1c(F)c(F)c(C(=O)Nc2ccccc2N2CCN(C(C)=O)CC2)c(F)c1F	6%	-11%	1.8%	15
Cc1cc(Oc2nc3c(C)cccn3c(=O)c2/C=C(\C#N)S(=O)(=O)c2ccc(Cl)cc2)ccc1Cl	3%	-7%	0.6%	3
C[C@@H]1COC(=O)[C@H](Cc2ccc(F)cc2)C/C=C\C[C@@H](CC(=O)N[C@H](CO)Cc2ccccc2)C(=O)N1	1%	/	2.3%	/
CCOc1ccccc1C(=O)NC(C(=O)N(C)c1c(N)n(Cc2ccccc2)c(=O)[nH]c1=O)C(C)C (stereo not given)	-5%	/	0.3%	/
COc1ccc(Cl)cc1N1C(=O)C2CCCN2C1c1ccccc1F (stereo not given)	22%	-13%	0.2%	8
O=C(Nc1nnc(SCc2ccc(F)cc2)s1)C1CC(=O)N(Cc2ccccc2)C1 (stereo not given)	-1%	-11%	-3.7%	5
C/C(=C\c1ccco1)C1C(C#N)=C(N)Oc2n[nH]c(-c3ccc(C)cc3)c21 (stereo not given)	-14%	-2%	-1.8%	-3
CCN(CC)CCOC(=O)c1ccc(N=CC2=C(O)CC(C)(C)CC2=O)cc1	-13%	/	0.2%	/
COc1cc(C(=O)N2CCCN(C)CC2)cc(OC)c1C	-3%	-3%	1.4%	/
O=C1NC(c2ccncc2)C(C(=O)c2cccs2)C(O)(C(F)(F)F)N1 (stereo not given)	-1%	-1%	0.4%	2
CC1(c2nnc(-c3ccncc3)o2)CC(c2c(Cl)cccc2Cl)=NO1 (stereo not given)	31%	8%	0.6%	2
COc1ccc(N(CC(=O)N/N=C/c2cccs2)S(=O)(=O)c2ccccc2)cc1	-6%	1%	1.2%	-5
COC(=O)c1cccc(NC(=O)c2cccnc2)c1	-13%	-7%	-5.2%	11
CCCN(CC(=O)Nc1ccccc1OC)C(=O)Cn1[nH]c(=O)c2ccccc2c1=O	6%	/	-2.6%	/
COc1ccc(NC2=C3CC(C)CC=C3N(c3ccc(OC)cc3)C2=O)cc1 (stereo not given)	-7%	-8%	-3.7%	-9
CC(=O)Nc1nc(-c2ccc3c(c2)CCN3C(=O)C2CC2)c(C)s1	7%	?	-3.3%	/
CCc1ccc(C(=O)NNC(=O)CN2C(=O)NC3(CCCC3)C2=O)cc1	32%	/	4.1%	/
Cc1ccc(S(=O)(=O)N(C)c2c(C)ccc(S(N)(=O)=O)c2C)cc1	1%	-4%	-0.7%	-24
Cc1ccc(S(=O)(=O)N2CCC3(CC2)OCCN3S(=O)(=O)c2cccs2)cc1	-7%	/	-1.8%	/
O=C(COC(=O)c1ccccn1)Nc1ccc2c(c1)OCCO2	1%	/	-0.6%	/
Cc1noc(C)c1C(=O)NC(C)C12CC3CC(CC(C3)C1)C2 (stereo not given)	17%	-3%	-2.5%	3
O=C(CNC(=O)C1COc2ccccc2O1)N/N=C\c1ccc(Br)cc1 (stereo not given)	21%	2%	-0.3%	/
CCOc1ccccc1-n1c(C)cc(C=O)c1C	1%	1%	0.3%	8
COC(=O)c1ccc(NC(=O)CN2C(=O)c3ccccc3S2(=O)=O)cc1	-14%	4%	2.1%	/
O=C(CNC(=O)c1ccc2ccccc2c1)NCc1ccc(F)cc1	-9%	8%	0.8%	/
CCOCCCNS(=O)(=O)c1ccc(NC(=O)CN2C(=O)c3ccccc3C2=O)cc1	-4%	2%	0.5%	-1
CCCN(CCC)c1nc(N)nc(-c2cc(Cl)ccc2OC)n1	1%	-5%	0.4%	0
The list goes on.
SMILES	Rango dissoc inh	miR-21 FLuc	Rango-impB inh	GLA inh pH 4.5
O=C(CNC(=O)c1ccncc1)N/N=C/c1ccc(O)cc1O	?	-1%	-1.3%	-23
CC(=O)N1c2ccc(S(=O)(=O)N3CCC(C(=O)N4CCC(C)CC4)CC3)cc2CC1C (stereo not given)	-10%	10%	-2.3%	/
CCOc1ccc(C2SCC(=O)N2c2c(C)n(C)n(-c3ccccc3)c2=O)cc1 (stereo not given)	12%	-8%	-2.1%	2
CNC(=S)NNC(=O)c1cccn(Cc2ccc(Cl)cc2Cl)c1=O	/	-7%	/	1
CCCC/C(O)=C1\C(=O)CC(C)(C)CC1=Nc1ccccc1OC	23%	5%	4.7%	-2
O=c1c(Cc2c(F)cccc2Cl)c(O)ccn1C1CCCCCC1	0%	-2%	-3.5%	3
COc1ccccc1NC(=O)COC(=O)CN1C(=O)C(=O)c2ccccc21	2%	12%	0.2%	/
CCC(CO)Oc1cc(NCc2cccc(OC)c2)c2ncn(C(C)C)c2c1 (stereo not given)	?	/	?	/
Cc1ccc(NC(=O)CCS(=O)(=O)c2cccc3nonc23)cc1	22%	3%	-4.8%	4
O=C(NC1CCCC1)C(c1cccs1)N(C(=O)c1csnn1)c1ccccc1F (stereo not given)	13%	-3%	2.1%	/
CCc1nc(C)ccc1OCC(=O)N1CCc2c([nH]c3ccccc23)C1c1ccccn1 (stereo not given)	-14%	-6%	?	3
Cc1ccc(OCc2occc2C(=O)O)cc1	7%	/	0.9%	/
CCOC(=O)C(NC(=O)CC)C(O)c1cccc([N+](=O)[O-])c1 (stereo not given)	-13%	-3%	1.6%	5
CN(C)c1ccc(C2C3CCCc4ccccc4C3=NN2C)cc1 (stereo not given)	0%	-53%	?	-12
O=C(CSc1ncn(-c2ccccc2)n1)NCc1ccccc1	11%	-3%	-1.7%	1
Cc1ccccc1N1CCN(S(=O)(=O)CC23CCC(CC2=O)C3(C)C)CC1 (stereo not given)	-9%	0%	-0.1%	/
CCCNc1ccc(S(=O)(=O)N(CC)CC)cn1	1%	1%	-1.9%	-12
C=CCNc1ncnc2c1[nH]c1ccccc12	-6%	1%	-2.8%	2
CCCOc1ccccc1C(=O)N(Cc1ccc(C)o1)C1CCS(=O)(=O)C1 (stereo not given)	47%	1%	2.2%	/
NC(=O)c1ccccc1NC(=O)CCCCCn1nnc2ccccc2c1=O	-3%	-8%	4.0%	/
CC(=O)c1c(C(C)=O)c(C)n(Cc2ccc3c(c2)OCO3)c1C	-3%	2%	11%	12
COC(=O)[C@]1(Cc2ccccc2)N[C@H](CN(C)S(=O)(=O)c2ccc(C(C)(C)C)cc2)[C@@H]2C(=O)N(C)C(=O)[C@@H]21	?	/	-0.3%	/
Cc1ccc(N(Cc2ccccc2)C(=O)CN2C(=O)NC3(CCCC3)C2=O)cc1	10%	-2%	-0.4%	/
COc1ccccc1NC(=O)N1CCN(c2ccc3nncn3n2)CC1	-1%	0%	3.0%	8
CC(C)C(=O)Nc1ccc(C(=O)NNC(=O)CCCOc2ccc(Cl)cc2Cl)cc1	0%	-2%	0.3%	2
(list continues)
SMILES	Rango dissoc inh	miR-21 FLuc	Rango-impB inh	GLA inh pH 4.5
COCCCNC(=S)N(Cc1ccccc1)Cc1ccc(F)cc1	-9%	0%	1.0%	6
CCOc1ccc(-c2nc3c(s2)CCc2onc(-c4ccc(OC)cc4)c2-3)cc1	-8%	/	4.6%	/
CCCCOC(=O)Nc1nnc(CC)s1	-1%	-40%	-5.7%	7
CN(C)c1cccc(N(C)C)c1CNC(=O)C(C)(C)C	9%	2%	-0.3%	2
CCC1CCCCN1C(=O)COc1ccc(N(C)S(=O)(=O)c2ccc(C)cc2)cc1 (stereo not given)	-1%	13%	-0.3%	/
COc1ccc2cc(CCNC(=O)C(C)(C)C)c(=O)[nH]c2c1	19%	-8%	-0.3%	6
CCCCc1ccc(NC(=S)N2CCCC2)cc1	-17%	-54%	2.8%	/
Cc1ccc2oc(=O)c(/C=C(\O)c3ccco3)nc2c1	?	-14%	?	-8
NC(=O)c1ccc(NC(=O)CSc2cn(CC(=O)N3CCOCC3)c3ccccc23)cc1	-12%	3%	4.5%	/
Cc1nn(Cc2ccccc2Cl)c2sc(C(=O)NC(C)(C)C)cc12	-2%	14%	-1.8%	-5
CC(C(=O)N1CCN(c2ccccc2)CC1)N1C(=O)C2CC=CCC2C1=O (stereo not given)	2%	-3%	3.1%	8
Cn1ncc2c(=O)[nH]cnc21	-21%	0%	-0.5%	-1
CCOC(=O)C(=O)N1CCC(C(=O)OC)CC1	-11%	1%	1.5%	0
Cc1ccccc1N1CCN(S(=O)(=O)C[C@]23CCC(CC2NC(=O)[C@@H](N)CCS(C)(=O)=O)C3(C)C)CC1 (stereo not given in full)	1%	/	-3.0%	-3
Cc1cc(=O)oc2cc(OCC(=O)NC3CC(C)(C)NC(C)(C)C3)c(Cl)cc12	1%	5%	2.3%	/

Assay outcomes from PubChem BioAssay.
